HPGD inh – qHTS Assay for Inhibitors of HPGD (15-Hydroxyprostaglandin Dehydrogenase). purified HPGD, NADH fluorescence kinetic, PGE2 substrate. 15-hydroxyprostaglandin dehydrogenase [NAD(+)] (Homo sapiens), P15428. Potency, µM, for inactives: at the top dose activity change, negative = inhibition, usual class: inhibitors. AID 894, 2007. 4.3% of 150,000 active; active = well fitted inhibition curve with a large enough effect (not every such curve was filed as active); inconclusive = small, poorly fitted or top-dose-only effect, or another doubt; inactive = no such curve, though single readings can be large or run the other way;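 note: top concentration of the series not given in the record; plate controls included wells without enzyme; inactives centre near -10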
Target sequence (P15428 whole entry, looked up): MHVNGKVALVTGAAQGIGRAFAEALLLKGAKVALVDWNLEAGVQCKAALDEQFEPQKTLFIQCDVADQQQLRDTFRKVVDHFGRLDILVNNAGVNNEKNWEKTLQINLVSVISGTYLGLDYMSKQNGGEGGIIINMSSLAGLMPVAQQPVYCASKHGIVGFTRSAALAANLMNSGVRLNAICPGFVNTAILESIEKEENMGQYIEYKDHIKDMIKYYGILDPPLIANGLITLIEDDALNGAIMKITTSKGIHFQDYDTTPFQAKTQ
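20 nM HPGD preincubated 15 min at room temperature with compound in 50 mM Tris-HCl pH 8, 0.01% Tween 20. Started with 1 mM NAD+ and 30 uM prostaglandin E2; NADH fluorescence (360/450 nm) read 5 times over 30-s intervals, last minus first.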
Active calls of the source: *; ? = inconclusive; & = joins results of further samples. % is set by controls: 0 for no effect and ±100 for the full control effect; potency is the fitted concentration of half-maximal effect.

SMILES	HPGD inh
CCc1ccc(NC(=O)C(CC)Sc2nc3cc4c(cc3c(=O)n2Cc2ccco2)OCO4)cc1 (stereo not given)	-8%
C[C@@H](C(=O)Nc1ccc2ccccc2c1)[C@@H]1C[C@@]1(C)[C@@H](N)c1ccccc1	-8%
COc1cccc(/C=C2\SC(=O)N(CCC(=O)NNC(=O)c3ccccc3Cl)C2=O)c1	?
CCOC(=O)Cc1nnc(NC(=O)COc2ccc(C)cc2)s1	-13%
COc1ccc(NC2=NCC(=O)N2c2ccccc2F)cc1	-8%
CC(C)OC(=O)/C(=C\c1ccc2c(c1)c1ccccc1n2C)NC(=O)c1ccccc1	?
Cc1ccccc1NC(=O)CCN1CCN(Cc2ccccc2)CC1	-6%
Cc1oc2ccc(OCc3ccc(F)cc3)cc2c1C(=O)O	-9%
CCC(=O)Nc1ccccc1Oc1ccccc1	2%
S=c1[nH]cc(-c2ccccc2)n1-c1cccc(Cl)c1	?
COc1ccc(CCNC(N)=S)cc1OC	-3%
Cc1ccc(-c2cc(C(=O)O)c3cc(Br)ccc3n2)o1	?
CCOC(=O)C1CCN(C(=O)c2ccc(Cl)c(S(=O)(=O)N3CCOCC3)c2)CC1	-7%
c1ccc2cc(OCc3nc4ccccc4[nH]3)ccc2c1	-16%
COc1ccc([N+](=O)[O-])cc1NC(=O)C(C)N(C)Cc1cccc(OC)c1OC (stereo not given)	-12%
C=CCOCCN1C(=O)C2C(c3ccccc3)C=CC(c3ccccc3)C2C1=O (stereo not given)	-21%
O=C(CCC1CCCCC1)Nc1ccc(S(=O)(=O)Nc2nccs2)cc1	-13%
O=C(NCC1CCCO1)c1ccc(S(=O)(=O)N2CCCCC2)cc1 (stereo not given)	-4%
CCn1c(SCC(=O)Nc2nccs2)nnc1-c1ccc(S(=O)(=O)N2CCCCCC2)cc1	-8%
CSc1ccccc1NC(=O)c1cccnc1	-17%
COc1ccc(-c2cc(C(F)(F)F)nc(SCC(=O)Nc3cc(C)on3)n2)cc1OC	?
O=S(=O)(NCC1CCCO1)c1ccc(S(=O)(=O)N(Cc2ccc(F)cc2)Cc2ccco2)cc1 (stereo not given)	-18%
COc1ccc(N2CCN(/C(=N\S(=O)(=O)c3ccccc3)Nc3nc(C)cc(C)n3)CC2)cc1	0%
CC1(C)Cc2nc3nc(SCC(=O)NCCc4ccccc4)n(-c4ccccc4)c(=O)c3cc2CO1	-14%
Cc1nn(Cc2ccc(F)cc2)c2sc(C(=O)Nc3ccc(N4CCOCC4)cc3N3CCOCC3)cc12	-20%
O=S(=O)(c1ccccc1)c1ccc(NCc2ccco2)cc1	?
CCN1C(=O)C(CC(=O)Nc2ccc(OC)cc2)N(Cc2cccnc2)C1=S (stereo not given)	-10%
O=C1C2C3C=CC(C3)C2C(=O)N1CC1CCCO1 (stereo not given)	0%
COc1cccc2cc(C(=O)N3CCN(C/C=C/c4ccccc4)CC3)c(=O)oc12	?
O=[N+]([O-])c1cc(-c2nc3nc4ccccc4nc3n2CCc2ccccc2)cc([N+](=O)[O-])c1	?
Cc1nnc(SCC(=O)Nc2ncc3c(n2)CC(C)(C)CC3=O)s1	-12%
O=C(NCCCN1CCOCC1)NC12CC3CC(CC(C3)C1)C2	-4%
Cn1cccc1C(=O)OCC(=O)Nc1ccc2c(c1)CCC2	-15%
Cc1cc(=O)oc2ccc(OCC(=O)O)cc12	?
N#C/C=C1\n2c(nc3ccccc32)OC12CCCCC2	-6%
COc1ccc(C(=O)O/N=C(\C)c2ccccc2)cc1	-19%
Cc1cc(C)c(S(=O)(=O)c2ccccc2C)c(Cl)n1	-7%
Cc1ccc(C)c(OCC(O)CN2C(C)CCCC2C)c1 (stereo not given)	-9%
CS(=O)(=O)N(CC(=O)NCc1ccco1)c1ccccc1Cl	-3%
CNC(=O)c1ccccc1	-7%

Reprinted from the listing, two compounds:
SMILES	HPGD inh
CCc1ccc(NC(=O)C(CC)Sc2nc3cc4c(cc3c(=O)n2Cc2ccco2)OCO4)cc1 (stereo not given)	-8%
C[C@@H](C(=O)Nc1ccc2ccccc2c1)[C@@H]1C[C@@]1(C)[C@@H](N)c1ccccc1	-8%

New compounds follow:
SMILES	HPGD inh
COC(=O)[C@@]1(Cc2ccc(F)cc2)[C@@H]2C(=CC(=O)[C@H]2CC(=O)C(=O)N2CCCC2)CN1C(=O)c1ccccc1	-11%
CC1(C)CC(=O)C=C(N2CCN(C3=CC(=O)CC(C)(C)C3)CC2)C1	-11%
CCOC(=O)c1c(C)[nH]c(C)c1C(=O)CN1C(=O)NC(CC(C)C)C1=O (stereo not given)	-6%
CCC(=O)N1CCc2cc(S(=O)(=O)CCC(=O)NCc3cccs3)ccc21	-10%
Nc1nc(NCc2ccccc2)nc(Nc2cccc(F)c2)c1[N+](=O)[O-]	-11%
C=CCn1c(-c2sccc2C)n[nH]c1=S	-13%
CCOC(=O)N1CCN(C(=O)c2ccc3c(=O)n(Cc4ccc(Cl)cc4)c(=S)[nH]c3c2)CC1	-22%
COc1ccc2c(CN3CCN(S(=O)(=O)c4cccs4)CC3)cc(=O)oc2c1	?
Cc1cc(C)cc(NC(=O)N2CCCC2C(=O)Nc2ccc(-n3cnnn3)cc2)c1 (stereo not given)	-9%
Cc1ccc(CNc2ncccc2-c2nc3cc(Cl)ccc3o2)cc1	?
CC1(C)CC(=O)C2=C(C1)N(Cc1cccnc1)C(=O)C2(NC(=O)C1CC1)C(F)(F)F (stereo not given)	-5%
CCCCn1c(NC(C)CC)nc2c1c(=O)[nH]c(=O)n2C (stereo not given)	-7%
Cc1c(C(=O)NCc2cccnc2)oc2ccc(S(=O)(=O)N3CCC4(CC3)OCCO4)cc12	-6%
CCOc1ccc(C(=O)Nc2ccc3c(c2)OCCO3)cc1OC	-12%
COc1ccccc1NC(=O)Cn1cc(C#N)c2ccccc21	-4%
Nc1nc(N2CCOCC2)nc2ccccc12	?
CC(C)(C)OC(=O)N1CCOCCOCCN(C(=O)OC(C)(C)C)CCOCCOCC1	0%
CCOC(=O)N1CCN(C(=O)c2cnc3n(c2=O)CCS3)CC1	-3%
COc1ccc(C(=O)N2CCN=C2SCc2cccnc2)c(OC)c1	-18%
O=C(CSc1nc2ccccc2c(=O)n1-c1ccccc1)c1c[nH]c2ccccc12	-10%
CCNC(=O)c1ccc(C2SCC(=O)N2Cc2ccco2)cc1 (stereo not given)	-25%
COc1ccc(Cc2nn[nH]n2)cc1	1%
Cc1[nH]c2ccc(C(=O)O)cc2c1C	?
NCCC[C@@H](CC(=O)N[C@@H]1CCCC[C@H]1C(=O)N[C@H](CC(=O)N[C@@H](CCC(=O)O)CC(=O)O)Cc1c[nH]c2ccccc12)NC(=O)C[C@H](CO)NC(=O)[C@@H]1CCCC[C@H]1N	-10%
O=C(Nc1cccc2nsnc12)c1ccc(-c2cccc(Cl)c2)o1	-13%
Cc1nn(-c2ccccc2)c2sc(-c3nnc(SCC(=O)O)o3)cc12	?
COc1ccc(NC(=O)CCC2CCCC2)cc1OC	6%
Cc1cccc(N=Nc2c(N)n[nH]c2-c2ccc(Cl)cc2)c1	-1%
COC(=O)c1ccc(NC(=O)C2C3CCC(C3)C2C(=O)O)cc1 (stereo not given)	-14%
C/C(=C\C(=O)c1ccccc1)Nc1ccc(O)cc1	-8%

Continued, overlapping the part above by 7 compounds.
SMILES	HPGD inh
NCCC[C@@H](CC(=O)N[C@@H]1CCCC[C@H]1C(=O)N[C@H](CC(=O)N[C@@H](CCC(=O)O)CC(=O)O)Cc1c[nH]c2ccccc12)NC(=O)C[C@H](CO)NC(=O)[C@@H]1CCCC[C@H]1N	-10%
O=C(Nc1cccc2nsnc12)c1ccc(-c2cccc(Cl)c2)o1	-13%
Cc1nn(-c2ccccc2)c2sc(-c3nnc(SCC(=O)O)o3)cc12	?
COc1ccc(NC(=O)CCC2CCCC2)cc1OC	6%
Cc1cccc(N=Nc2c(N)n[nH]c2-c2ccc(Cl)cc2)c1	-1%
COC(=O)c1ccc(NC(=O)C2C3CCC(C3)C2C(=O)O)cc1 (stereo not given)	-14%
C/C(=C\C(=O)c1ccccc1)Nc1ccc(O)cc1	-8%
O=C(NCc1ccco1)c1ccccc1NS(=O)(=O)c1ccc2c(c1)OCCO2	?
Cc1ccc(N(C)C)cc1	-11%
COc1ccc(F)cc1CN1CCN(C(=O)CCC(=O)Nc2nnc(C(C)C)s2)CC1	-6%
Cc1cccc(C(=O)N/N=C/c2cc(Br)c(Br)o2)c1	-10%
CCCCn1c(=N)n(CC(O)COc2cccc(C)c2)c2ccccc21 (stereo not given)	-12%
c1ccc(Cn2ncc3c2ncn2c(-c4ccncc4)nnc32)cc1	-20%
O=C(c1cc(F)c(F)cc1Cl)N1CCCCC1	5.6µM*
Cn1c(=O)n(Cc2ccccc2)c(=O)c2c1nc1n2CCS1	-8%
Cc1occc1C(=O)NCCCc1ccccc1	-9%
COc1cc(C(=O)NCCc2cn3ccc(C)cc3n2)cc(OC)c1OC	-2%
O=C(c1ccccc1-c1ccccc1)N1CCN(c2ccccn2)CC1	-8%
COc1ccc2c(c1)O[C@H](c1ccc3c(c1)OCO3)[C@@H](OC(=O)Nc1ccc(OC(F)F)cc1)C2=O	-6%
COc1cccc(CNc2ccc(F)c(Cl)c2)c1OC	-10%
CCOC(=O)c1csc(NC(=O)CSc2nnnn2-c2ccc3c(c2)OCCO3)n1	-8%
O=C(O)c1ccc(SCc2cnc(Cl)s2)cc1	-15%
Cc1ccccc1N1Cc2ccccc2C1	?
CC[N+]1(C)[C@@H]2CC[C@H]1CC(OC(=O)[C@H]1CC[C@@](C(=O)OC3C[C@H]4CC[C@@H](C3)[N+]4(C)CC)(c3ccccc3)c3ccccc31)C2 (stereo not given in full)	-1%
O=C(Nc1ccccc1N1CCOCC1)C1CCN(S(=O)(=O)c2cccc(C(F)(F)F)c2)CC1	-9%
Cc1csc(SCC(=O)Nc2cc(C(C)(C)C)nn2-c2ccccc2)n1	-7%
COc1ccc(CNC(=O)CCCc2ccccc2)cc1	-25%
COc1ccc(/C=N/NC(=O)c2nn(-c3ccccc3)c(=O)c3c(N)scc23)cc1	28µM*
O=C(c1ccc(S(=O)(=O)N2CCOCC2)cc1)N(c1ccccc1)C1C=CS(=O)(=O)C1 (stereo not given)	1%
CCCCC/C=C\C\C=C/C=C/C=C/[C@@H](SCC(NC(=O)CCC(N)C(=O)O)C(=O)NCC(=O)O)[C@@H](O)CCCC(=O)O (stereo not given in full)	-5%
CC1(C)Cc2c(sc3c2c(=N)n(Cc2ccco2)c(=O)n3CC(=O)Nc2cccc(Cl)c2)CO1	?
CCCCn1nc2cc(C(=O)NCc3ccco3)ccc2c1OCC	?
O=C(NC1CCC(C(=O)O)CC1)OCc1ccccc1 (stereo not given)	-5%&-8%
CCOC(=O)c1c(C)n(C)c2cc(-c3cccc(C(F)(F)F)c3)c(O)cc12	-7%
C=CCn1c(SCC(=O)Nc2ccccc2)nnc1-c1cccc(S(=O)(=O)N2CCOCC2)c1	-7%
O=C(Nc1cnn(Cc2ccc(F)cc2)c1)c1cc(-c2cccs2)on1	-27%
CCC(NC(=S)NCc1ccccc1)C(=O)O (stereo not given)	3%
CCOc1c2ccc(C(=O)NCc3ccc4c(c3)OCO4)cc2nn1C	?
COc1ccc(Br)cc1S(=O)(=O)n1ccnc1C	3%
Cc1n[nH]c(C)c1S(=O)(=O)N1CCCC(C(=O)NC2CCCc3ccccc32)C1 (stereo not given)	-4%
CCN(CC)C(=O)Cn1cnc2sc(C(=O)Nc3cc(OC)c(OC)c(OC)c3)c(C)c2c1=O	-4%
Cc1cccc(CSc2ncnc3nc[nH]c23)c1	?
CCN(CC)CCCNC(=O)C1c2ccccc2C(=O)N(C)C1c1ccc(OC)cc1 (stereo not given)	-13%
Cc1cc(C)nc(NS(=O)(=O)c2ccc(NC(=O)c3cccs3)cc2)n1	-17%
S=C1NCN2CCN(CC2)CNC(=S)C(=S)NCN2CCN(CC2)CNC1=S	-18%
C[C@]1(c2ccccc2)OC(C(=O)O)=CC1=O	-10%
O=C(Nc1cccc(F)c1)N1CC[C@@]2(CCCN(C(=O)c3cc(C(F)(F)F)cc(C(F)(F)F)c3)C2)C1	-4%
CC1Cc2ccccc2N1C(=O)CSc1ncc(-c2ccc(F)cc2)n1C (stereo not given)	-6%
CC1(C(=O)O)CCC(C(=O)NC2CCCCCC2)C1(C)C (stereo not given)	-9%
CCC(C(=O)NC1CCCC1)N(C(=O)Cn1nnc(-c2cccs2)n1)c1cnc2ccccc2c1 (stereo not given)	-1%
COc1cccc(NC(=O)C(NCC(C)(C)CN(C)C)c2ccccc2)c1 (stereo not given)	10%
Cc1nc(SCCCSc2n[nH]c(C)n2)n[nH]1	6%
O=C1CN=C(Nc2ccccc2Cl)N1Cc1ccc2c(c1)OCO2	0%
CCN1C(=O)N(CC)C2NC(=S)NC21 (stereo not given)	-6%
Cc1nn(-c2ccccc2)c2c1C1(C(=O)N(C)c3ccccc31)N(c1ccccc1)C(=O)N2 (stereo not given)	-1%
Cc1csc(NC(=O)CN(C)S(=O)(=O)c2cccc3cccnc23)n1	-25%
O=C(Nc1ccccc1)N1CC2(CCN(C(=O)c3cccc(F)c3)CC2)C1	-5%
(listing goes on)
SMILES	HPGD inh
CC(C)C[C@@H](NC(=O)[C@@H](O)[C@H](N)Cc1ccccc1)C(=O)O	-6%
NC1=NC(=O)/C(=C/c2c(OS(=O)(=O)c3ccc(Cl)cc3)ccc3ccccc23)S1	-18%
NCCC[C@@H](CC(=O)N[C@@H]1CCCC[C@H]1C(=O)N[C@H](CC(=O)N[C@@H](CCC(=O)O)CC(=O)O)Cc1ccccc1)NC(=O)C[C@H](Cc1c[nH]c2ccccc12)NC(=O)[C@@H]1CNCC[C@H]1N	-5%
CC(C)n1nnnc1-c1cc(Cl)cc(Cl)c1	-1%

Screening results deposited in PubChem by National Center for Advancing Translational Sciences (NCATS).

Some of the compounds tested, so the mix of outcomes need not match the whole.
